Biofilm kill mix: mixtures killing C. albicans biofilm. C. albicans biofilm persisters + clotrimazole, fluorescence viability; primary screen in compound mixtures of four per well. inhibition, % at 7.6 µM. AID 1242. 0.02% of 120,000 active;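 active = inhibition above 30.3% in the primary screen of four-compound pools, then above 30% when the compound was retested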;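 also: compounds exposed to preformed 24 h biofilms for 48 h; the number belongs to the whole pool; some results filed as inactive read as strong as hits; inactives centre near 12; 0% = biofilm with clotrimazole alone and 100% = kill control; retested singly at about 60 µM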
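Assay system: C. albicans biofilms / Medium: RPMI/MOPS medium, pH 7.0 / Schedule: biofilm formation 24 h, compound exposure 48 h, 37 °C / Measured by: Alamar Blue fluorescence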
* = called active by the depositor. An excerpt; count on the stated rates, not on these rows.

compound	Biofilm kill mix
COc1cccc(-c2noc(C3CCCN(C(=O)CC(C)(C)C)C3)n2)c1 (stereo not drawn)	16
CC(C)(C)NC(=S)N/N=C/c1c(Cl)cccc1Cl	8
CC(=O)Nc1ccc(S(=O)(=O)Nc2cccc(-c3csc(C)n3)c2)cc1	16
O=C(O)CCCCCCC1C(=O)NC(=O)N1CCC(O)C1CCCCC1 (stereo not drawn)	23
COc1cccc(NC(=O)Cn2c(CCC(=O)O)ccc2-c2ccc(Cl)cc2)c1	5
C[N+]1([O-])[C@@H]2Cc3cc4c(cc3[C@@H]1Cc1cc3c(cc12)OCO3)OCO4 (stereo partly drawn)	16
COc1ccc(/C=N/NC(=O)c2cc(=O)[nH]c3ccccc23)cc1OC	11
CC(C)c1nc(SCC(=O)NC(=O)NC(C)(C)C)n[nH]1	23
COc1ccc(CCNc2ncnc3c2[nH]c2cc(OC)c(OC)cc23)cc1OC	18
CC[C@H](C)[C@H](NC(N)=O)C(=O)NCCc1ccc(OC)c(OC)c1	18
COC(=O)CNC(=O)COC(=O)/C=C/c1ccc2ccccc2n1	20
CN(Cc1ccccc1)c1ccc(N2C(=O)CCC2=O)cc1[N+](=O)[O-]	9
O=C(Nc1ccccc1)C1=C[C@@H](c2coc3ccccc3c2=O)C[C@@H](OCc2ccc(CO)cc2)O1	18
CNC(=S)NNC(=O)c1ccc(C(C)(C)C)cc1	9
COc1ccccc1C1C(C#N)=C(N)Oc2c1c(-c1ccccc1)nn2-c1ccccc1 (stereo not drawn)	16
CC(C)(C)c1ccc(-c2noc(-c3ccno3)n2)cc1	19
CC1S/C(=N/N=C/c2ccco2)N(Cc2ccc(F)cc2)C1=O (stereo not drawn)	24
CC(C)Nc1nnc(SCC(=O)c2c[nH]c3ccccc23)s1	14
O=C(COC(=O)/C=C/c1cccc([N+](=O)[O-])c1)NCc1ccco1	10
COc1ccc(-c2csc3ncn(CC(=O)N4CCOCC4)c(=O)c23)cc1	0
O=C(O)CC/C(=N/NC(=O)CNC(=O)Cc1ccccc1)c1ccccc1	12
COc1ccc(/C=N/NC(=S)NCC2CCCO2)cc1 (stereo not drawn)	11
Cc1ccc(SCc2ccc(C(=O)NCc3cccnc3)cc2)cc1	8
CCN1C(=O)C(CC(=O)Nc2ccc(F)cc2)N(Cc2ccco2)C1=S (stereo not drawn)	5
COc1ccc(CN2C(=O)C(C)S/C2=N/N=C/c2ccco2)cc1 (stereo not drawn)	21
Cc1cc(C)c(S(=O)(=O)N2CCCC2=O)c(C)c1	5
CSc1nsc(SC)c1C(=O)NC(=O)Nc1cccnc1	17
COc1cc(/C=C2\CCc3c2nc2ccccc2c3C(=O)O)cc(OC)c1OC	16
O=[N+]([O-])c1ccc(NCCCNS(=O)(=O)c2ccccc2)c(Cl)c1	8
O=S(=O)(c1cccc(F)c1)N1CCN(C(=S)NCc2ccccc2)CC1	31

Random excerpt: 2 compounds from above.
compound	Biofilm kill mix
O=C(O)CCCCCCC1C(=O)NC(=O)N1CCC(O)C1CCCCC1 (stereo not drawn)	23
COc1ccc(-c2csc3ncn(CC(=O)N4CCOCC4)c(=O)c23)cc1	0

The results go on:
compound	Biofilm kill mix
Cc1ccc(OCC(=O)N/N=C/c2cn(C)c3ccccc23)cc1	2
CC(C)Cn1c(SCC(=O)N2CCCc3ccccc32)nc2ccccc2c1=O	17
CCOC(=O)C/C(C)=N\Nc1ccc([N+](=O)[O-])cc1[N+](=O)[O-]	15
CC(C(=O)O)N1CCCCC1 (stereo not drawn)	2
O=C(NCCN1CCOCC1)c1ccc2c(c1)N(Cc1cccc(F)c1)C(=O)c1ccccc1S2	11
O=C(CSc1ccsc1[N+](=O)[O-])N1CCN(c2ccccn2)CC1	17
O=C1CN(c2nc(-c3cccs3)nc3sc4c(c23)CCCC4)CCN1	20
COC(=O)c1c(C)[nH]c(C=O)c1-c1ccccc1	12
CCS(=O)(=O)N1CCC(C(=O)NCc2ccc3c(c2)OCO3)CC1	3
O=C(CCN1C(=O)c2ccccc2C1=O)N1CCN(Cc2ccccc2)CC1	20
O=C(Cc1ccccc1)Nc1cccc(NC(=O)c2cccs2)c1	2
COc1ccc(-c2noc(CN3CCCC(OCc4ccccn4)C3)n2)cc1 (stereo not drawn)	-1
COc1ccc(C(=O)NNC(=O)C2CCCO2)cc1 (stereo not drawn)	5
O=C(O)CCC1OC(=O)C(O)=C1c1ccccc1 (stereo not drawn)	15
Cc1nnc(NC(=O)c2c(-c3ccccc3Cl)noc2C)s1	16
Cc1ccccc1NC(=O)Nc1cc(-c2ccccc2)nn1C	3
CCCNC(=O)c1[nH]c(C)c(C(=O)OCC)c1C	5
Cc1ccc(-n2c(CNc3ccc(F)cc3)nnc2SCC(=O)O)cc1	-4
CC(C)=C(NC(=O)c1ccccc1)C(=O)Nc1cccc(C(=O)O)c1	30
COc1ccc(C(c2c(O)nc[nH]c2=O)c2c(O)nc[nH]c2=O)cc1	23
CNC(=S)N/N=C/c1c(C)nn(-c2cccc(Cl)c2)c1Cl	18
CSc1ncccc1C(=O)OCC(=O)c1cc(C)n(CC2CCCO2)c1C (stereo not drawn)	7
S=C(Nc1ccc2nccnc2c1)N1CCCC1	18
CCc1cccc(NC(=O)Cn2c3[n+](c4ccc(C(F)(F)F)cc42)CCCCC3)c1	10
S=C(NCCN1CCCCC1)Nc1ccccc1	14
Cc1cc(C)n(CCNCc2c(C(=O)N3C[C@@H](C)O[C@@H](C)C3)nc3ccc(Cl)cn23)n1	4
N#Cc1cccc(S(=O)(=O)NCC(=O)OCC(=O)c2ccc[nH]2)c1	5
CC(C)=C1SC(N2CCN(c3ccc(Cl)cc3)CC2)=NC1=O	4
Cc1ccc(-n2c(C)cc(C=C3C(=O)CC(C)(C)CC3=O)c2C)cc1	-6
COc1ccc(N=CC2=C(O)CC(c3ccccc3)CC2=O)c(OC)c1 (stereo not drawn)	9
CCOC(=O)N/N=C(\C)c1ccc(OC(F)F)cc1OC(F)F	14
COc1ccc(NC(=O)Nc2ccccc2F)c([N+](=O)[O-])c1	11
CC1CCN(Cc2nnnn2-c2ccc(Cl)cc2)CC1	23
O=C(Nc1ccc(N2CCN(C(=O)c3ccco3)CC2)cc1)c1ccccc1	-13
O=C(N/N=C1\CCCCc2ccccc21)c1ccccn1	0
CCOC(=O)C1=NN(C(C)=O)C2(CC(=O)N(c3cc(C)cc(C)c3)C2=O)C1 (stereo not drawn)	18
C=CCn1cc(/C=C2/NC(=O)NC2=O)c2ccccc21	14
COc1cccc(NC(=O)COc2ccc3c(c2)CCC3)c1	6
COc1ccccc1N(CC(=O)NC(C)(C)C)C(=O)c1ccc(Cl)nc1	27
O=C(O)C1CCCCC1C(=O)NCCc1ccc(F)cc1 (stereo not drawn)	11
CC(OC(=O)c1ccccc1NS(=O)(=O)c1cccc(N)c1)C(=O)N(C)Cc1ccccc1 (stereo not drawn)	-8
Cc1oc(C(C)(C)C)cc1C(=O)N1CCCC1C(=O)O (stereo not drawn)	5
O=S1(=O)C[C@@H](O)[C@@H](Nc2ccccc2)C1	24
CC(C)N(C(=O)Cn1cc(SCC(=O)NCc2ccco2)c2ccccc21)C(C)C	17
N#Cc1nc(/C=C/c2ccccc2)oc1NCCCN1CCOCC1	30
O=C(O)/C=C/C(=O)Nc1ccc(OCc2ccccc2)cc1	13
CCN(CCO)c1ccc(N=Nc2cc(C)[nH]n2)cc1	14
CC(=O)Nc1ccc(OCC(=O)N(CC(C)C)C2CCS(=O)(=O)C2)cc1 (stereo not drawn)	12
CCN(C(=O)c1cc2c(=O)[nH]c3ccc(C)cc3c2s1)c1cccc(C)c1	22
CCC1(C)Cc2c(C#N)c(N)n(N)c(=S)c2CO1 (stereo not drawn)	15
Cc1cc(C)c2c(=O)cc(C(F)(F)F)oc2n1	9
C/C(=N\Nc1nc(C)c(C)s1)c1ccc([N+](=O)[O-])cc1	10
S=C(NCc1ccncc1)Nc1cccc(Cl)c1	17
O=C(N[C@@H](Cc1ccccc1)C(=O)OCc1ccccc1)c1nc[nH]c1C(=O)NCc1ccccc1	14
CCOC(=O)c1c([N+](=O)[O-])c(C)[nH]c(=O)c1C#N	16
Cc1cccc(C(=O)Nc2cccc(C(=O)N/N=C/c3ccncc3)c2)c1	6
O=[N+]([O-])c1cc(S(=O)(=O)N2CCCCC2)ccc1NCCN1CCOCC1	-4
CCOC(=O)CNC(=O)/C(=C\c1ccc(F)cc1)NC(=O)c1ccccc1	4
Cc1ccc(CNC(=O)c2ccc3nc4[nH]c5ccccc5c4nc3c2)cc1	26
COc1ccc(NC(=O)c2cc(C)n(Cc3cccs3)c2C)cc1	14

Further structures:
smiles,Biofilm kill mix
Cn1ccc(NC(=O)Nc2cccc([N+](=O)[O-])c2)n1,17
CC(C)Oc1ccc(CC(=O)NNC(=S)Nc2ccc(Br)cc2)cc1,-1
COc1cccc(CC2(CO)CCN(S(=O)(=O)N(C)C)CC2)c1,8
Cc1ccc(NS(=O)(=O)c2ccc(OCC(=O)NCc3cccnc3)cc2)cc1,8
Cc1ccccc1NC(=O)c1cc2c(C)nc3ccccc3c2o1,8
Cc1ccc(S(=O)(=O)Nc2cc(=O)[nH]c(SCc3ccc(Cl)cc3)n2)cc1,12
COc1ccccc1NC(=O)CCc1nc(-c2ccccc2F)no1,-5
COc1ccc(-c2csc3nc(C)nc(N4CCN(c5ccc(C(C)=O)cc5)CC4)c23)cc1OC,16
Cc1cc(=O)n2[nH]c(NCc3ccccc3F)nc2n1,13
CCOC(=O)c1c(CSc2ccccc2)oc2ccc(O)cc12,5
O=C(Cc1cccs1)N/N=C\c1ccc(O)cc1,13
C=CCNC(=S)N/N=C/c1ccc(-c2ccc(OC)cc2)o1,5
O=C(NCc1nc2ccccc2[nH]1)C1=C[C@H](c2ccc3c(c2)OCO3)C[C@H](OCc2ccc(CO)cc2)O1,11
COc1ccc(CCNc2ccc(S(=O)(=O)N3CCCC3)cc2[N+](=O)[O-])cc1,15
O=C1CSC(c2cccc(Cl)c2Cl)N1c1ccccn1 (stereo not drawn),9
CC[N+]1(CC)CC2=Cc3c(ccc4ccccc34)C(C)C2C1 (stereo not drawn),9
CCOC(=O)c1sc(NC(=S)NC(=O)C2CCCC2)cc1C,7
N#Cc1cc([N+](=O)[O-])ccc1NCCc1ccccn1,5
CSc1ccccc1NC(=O)CN(C)Cc1cc(=O)n2ccsc2n1,15
Cc1cc(NC(=O)c2ccccc2[N+](=O)[O-])ccc1Br,13
CC(C)Sc1nnc(NC(=O)c2ccco2)s1,10
CCn1cc(CN(C)S(=O)(=O)c2cccc([N+](=O)[O-])c2)cn1,12
CN(C)N1C(N)=C(C#N)C(c2cccs2)C2=C1CCCC2=O (stereo not drawn),3
O=C(COC(=O)CC(c1ccccc1)c1ccccc1)Nc1ccc(F)c(F)c1,24
O=C(Oc1cccc(Nc2ncnc3ccccc23)c1)c1cccnc1,15
COc1ccc(CN2CCN(CCc3ccccc3)C(CCO)C2)c(O)c1 (stereo not drawn),-9
COc1ccc(CN=Cc2c(O)[nH]c3ccccc23)cc1,19
COc1ccc(CN(C(=O)/C=C/C(=O)c2ccc(OC)cc2O)C(C(=O)NC2CCCCC2)c2ccncc2)cc1 (stereo not drawn),9
CC1CC(C)CN(CCCNC(=O)C2CCN(c3ncnc4c3sc3cccc(F)c34)CC2)C1 (stereo not drawn),24
CC1CN(CC(O)COCc2ccc3c(c2)OCO3)CC(C)O1 (stereo not drawn),6
NC(=O)COc1cccc(/C=N/NC(=O)c2ccc(-n3cccc3)cc2)c1,8
Cc1c(-c2ccccc2)oc2c(C(=O)OCC(=O)Nc3ccc(F)cc3)cccc2c1=O,8
O=C(COC(=O)c1ccc(O)cc1O)NCCN1C(=O)CSC1=O,14
O=C(NCCCN1CCOCC1)c1ccc([N+](=O)[O-])cc1[N+](=O)[O-],15
COc1ccc(C(=O)NC(=S)Nc2ccc(Cc3ccncc3)cc2)cc1,20
OCCC1CN(Cc2ccc(Oc3ncccn3)cc2)CCN1CCc1ccccc1 (stereo not drawn),24
O=C(C1=NN[C@@H]2C(=O)N(Cc3ccccc3)C(=O)[C@H]12)c1ccc(F)cc1,14
CCOC(=O)c1c(C)[nH]c(C)c1C(=O)COC(=O)c1cc2ccccc2cc1OC,12
CCC(C)[C@H](NC(=O)NCCCn1ccnc1)C(=O)OC (stereo partly drawn),9
C/C(=N\Nc1nc(-c2cc(C)ccc2C)cs1)c1cc2c(ccc3ccccc32)oc1=O,20
COc1ccc(-c2[nH]ncc2CN2CCC(O)(c3ccc(Cl)cc3)CC2)cc1,20
COc1cc(OC)c2c(C)cc(=O)oc2c1C(CCN1CCN(c2ccccc2)CC1)c1ccc2c(c1)OCO2 (stereo not drawn),7

Gathered by group, those above with a COOH group
smiles,Biofilm kill mix
O=C(O)CCCCCCC1C(=O)NC(=O)N1CCC(O)C1CCCCC1 (stereo not drawn),23
COc1cccc(NC(=O)Cn2c(CCC(=O)O)ccc2-c2ccc(Cl)cc2)c1,5
O=C(O)CC/C(=N/NC(=O)CNC(=O)Cc1ccccc1)c1ccccc1,12
COc1cc(/C=C2\CCc3c2nc2ccccc2c3C(=O)O)cc(OC)c1OC,16
CC(C(=O)O)N1CCCCC1 (stereo not drawn),2
O=C(O)CCC1OC(=O)C(O)=C1c1ccccc1 (stereo not drawn),15
Cc1ccc(-n2c(CNc3ccc(F)cc3)nnc2SCC(=O)O)cc1,-4
CC(C)=C(NC(=O)c1ccccc1)C(=O)Nc1cccc(C(=O)O)c1,30
O=C(O)C1CCCCC1C(=O)NCCc1ccc(F)cc1 (stereo not drawn),11
Cc1oc(C(C)(C)C)cc1C(=O)N1CCCC1C(=O)O (stereo not drawn),5
O=C(O)/C=C/C(=O)Nc1ccc(OCc2ccccc2)cc1,13
